Mtb bLac sens – beta-lactam sensitization of Mtb H37Rv, H37Rv. inhibition, % at 25 µM. hit rate 0.27% among 330,000. M. tuberculosis H37Rv growth with meropenem, percent inhibition; hits of this screen are not shown here;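 active = about 74% or more and at least 40 points above the plate without the antibiotic, then above 30% in a dose series; inconclusive = first-round hits that could not be retested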;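 also: growth measured after seven days incubation then overnight dye step; 0% = bacteria only wells and 100% = bacteria with antibiotic; twin plates without the antibiotic show which effects depend on it; some results filed as inactive read as strong as hits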
The depositor's hits bear a star; ? = inconclusive. Only part of the results is shown; rates above refer to the full screens.

SMILES | Mtb bLac sens
COc1ccc(N2CCN(C(=O)CSc3nnnn3C3CC3)CC2)cc1 | -10
O=C1c2ccccc2C(=O)C1(O)O | 21
CCCn1c(N)c(C(=O)CSc2nncs2)c(=O)[nH]c1=O | -4
O=C(Nc1ccc(SC(F)F)cc1)C1=CC=CN2CCS(=O)(=O)N=C12 | -7
C[C@H]1COC(=O)[C@@H](Cc2ccc(F)cc2)C/C=C\C[C@H](CC(=O)N(CCO)Cc2ccccc2)C(=O)N1 | 0
COc1ccc(-c2csc(NC(=O)[C@H](C)N3C(=O)C4CC=CCC4C3=O)n2)cc1OC (stereo not given in full) | 2
O=C(c1ccc(N2CCOCC2)c([N+](=O)[O-])c1)N1CCN(c2ccccc2F)CC1 | -1
CC(C)(C)OC(=O)C[C@@H]1C/C=C\C[C@@H](CC(=O)N(CCO)Cc2ccccc2)C(=O)N2CCC[C@H]2COC1=O | -4
COc1cccc(C2=CC(=O)C[C@H](c3ccc(OC)c(OC)c3)C2)c1 | 69
O=C(NCc1ccccc1Cl)c1ccc2c(=O)n(CC3CCCO3)c(=S)[nH]c2c1 (stereo not given) | 46
COCCN(C(=O)CC1OC(=O)c2ccccc21)c1c(N)n(Cc2ccccc2)c(=O)[nH]c1=O (stereo not given) | -2
CCOc1ccc(C(=O)NC(C(=O)NCCc2ccc(OC(F)F)cc2)C(C)C)cc1 (stereo not given) | 4
COCCN(CC(=O)Nc1cccc(C)c1C)C(=O)c1cc(-c2ccncc2)nc2ccccc12 | -5
O=C(OCc1nc(-c2ccccc2Cl)no1)c1ccco1 | 2
COCCn1cnnc1SCC(=O)Nc1cc(C)on1 | -9
C=CC[C@@H](CC(=O)N[C@H](CO)Cc1ccccc1)C(=O)N[C@@H](COC(=O)[C@@H](CC=C)Cc1ccc(F)cc1)Cc1c[nH]c2ccccc12 | -2
Cc1ccsc1C(=O)N(C)C1CCS(=O)(=O)C1 (stereo not given) | 0
CC(OC(=O)/C(C#N)=C/c1ccc(N(C)C)cc1)C(=O)NCc1ccco1 (stereo not given) | 4
COc1ccc(C(CNC(=O)c2cccn2C)N2CCOCC2)cc1 (stereo not given) | 10
COc1ccc2c(c1)[C@H]1[C@H](CO2)[C@H](c2ccccc2)[C@]2(C)C(=O)Nc3cc(F)c(F)cc3C(=O)N12 | 78
C=CCn1c(SCC(=O)c2ccc(O)c(O)c2)nnc1-c1ccc(C)cc1 | 8
CCOC(=O)[C@H]1[C@H]2COc3cc(OC)ccc3[C@@H]2N2C(=O)c3ccc(F)cc3NC(=O)[C@@]12C | -2
O=C(COC(=O)c1cccc(Cl)c1Cl)NCc1cccs1 | 5
CCOC(=O)C1CCN(C(=O)C(C)Sc2nnc3ccccn23)CC1 (stereo not given) | -2
COc1ccc(N(CC(=O)N2CCN(Cc3ccccc3)CC2)S(C)(=O)=O)cc1OC | -6
COc1ccc2cc(-c3cccnc3)ncc2c1 | 16
COc1ccc2ccc(O)c(CN3CCN(S(=O)(=O)c4cc([N+](=O)[O-])ccc4C)CC3)c2c1 | -3
CCc1noc(C)c1C(=O)N1CCN(S(=O)(=O)c2cccc(C(F)(F)F)c2)CC1 | 7
Cc1cccc(C)c1NC(=O)CNC(=O)C(C)N1CCN(c2cccc(Cl)c2)CC1 (stereo not given) | -7
O=C(CSc1ncnc2c1cnn2-c1ccccc1)NC1CCS(=O)(=O)C1 (stereo not given) | -2
CCOC(=O)N1CCN(C(=O)C(CC(C)C)NS(=O)(=O)c2ccc(C)cc2)CC1 (stereo not given) | 1
Cc1ccc(NC(=O)CCN2C(=O)C3CC=CCC3C2=O)cc1Cl (stereo not given) | -4
CC(C)NC(=O)Nc1ccc2c(c1)C(=O)N([C@H](C)CO)C[C@H](C)[C@@H](CN(C)C(=O)Nc1ccc(C(F)(F)F)cc1)O2 | 2
CCCc1cc(=O)[nH]c(SCC(=O)Nc2cc(S(=O)(=O)N(CC)c3ccccc3)ccc2Cl)n1 | -9
Cc1ccc(S(=O)(=O)NCCC(=O)NCC(c2cccs2)N(C)C)cc1 (stereo not given) | -13
CCOC(=O)[C@@H]1[C@H]2COc3ccc(Br)cc3[C@@H]2N2C(=O)N(c3ccc(OC)cc3)C(=O)[C@@]12C | -6
CN1C(=O)N(CC(=O)Nc2sccc2C(N)=O)C(=O)C12CCCCC2 | -4
COc1ccccc1-c1nn(Cc2ccccc2)cc1C(=O)NCC(c1ccco1)N1CCCC1 (stereo not given) | 5
CC(OC(=O)CCc1nc2ccccc2c(=O)[nH]1)C(=O)Nc1cccc(C(F)(F)F)c1 (stereo not given) | -6
COC(=O)c1ccc(COC(=O)CSCC(=O)Nc2ccc(C)cc2C)cc1 | 52
COc1ccc(S(=O)(=O)N2CCCCC2)cc1NC(=O)CCCNC(=O)c1ccc(Cl)cc1 | 4
COc1ccc2nc(C)cc(N/N=C/c3ccccc3)c2c1 | 100
CC(C)(CNS(=O)(=O)c1ccc(Br)s1)N1CCOCC1 | -12
OCc1c[nH]c2ccccc12 | -1
Cc1cccc(C)c1NC(=O)CN(C)C(=O)C1CCCCC1 | -8
O=C(Cc1csc(-c2ccccc2)n1)NCC(=O)Nc1ccc(F)c(F)c1F | -4
CCN(C[C@H]1N[C@@](C)(C(=O)OC)[C@H]2C(=O)N(Cc3ccccc3)C(=O)[C@@H]12)C(=O)Nc1ccc(C)cc1 | -1
C[C@H](NC(=O)N1C[C@H]2C[C@@H](C1)c1cccc(=O)n1C2)C(=O)Nc1cccc(F)c1 | -1
Cc1ccc(NS(=O)(=O)c2ccccc2F)cc1S(=O)(=O)N1CCCCC1 | -6
Cc1ccc(N(C)S(=O)(=O)c2cccc(C(=O)NCC(c3ccco3)N3CCCC3)c2)cc1 (stereo not given) | -10
Cc1ccc(F)cc1NC(=O)/C=C/c1ccc(S(=O)(=O)N2CCOCC2)cc1 | -10
CC(C)Cn1c(SC(C)C(=O)NCC2CCCO2)nc2ccc(Cl)cc2c1=O (stereo not given) | 0
O=C(O)C/C(=C\c1cc2c(cc1Br)OCO2)c1nc2ccccc2s1 | -9
Cc1[nH]c2ccc(C(=O)OC(C)C(=O)NC3CCCCC3C)cc2c1C (stereo not given) | -4
COC(=O)CNc1cc(S(=O)(=O)N2CCCCC2)ccc1Oc1cccc(C)c1 | -5
CC(C)NC(=O)c1ccc2c(c1)N(CC(=O)N1CCCC1)C(=O)C(C)(C)O2 | -14
O=C(Nc1ccccc1F)C1CCCN1S(=O)(=O)c1ccc(Cl)cc1 (stereo not given) | -2
O=C(OCC(=O)N1CCC(Cc2ccccc2)CC1)c1cc(Br)ccc1O | 78
O=C(COc1cccc(C(F)(F)F)c1)NCC(c1ccco1)N1CCCC1 (stereo not given) | -6
O=C1CC(c2ccccc2)NN1 (stereo not given) | 83

14 consecutive entries out of the list so far:
SMILES | Mtb bLac sens
O=C(CSc1ncnc2c1cnn2-c1ccccc1)NC1CCS(=O)(=O)C1 (stereo not given) | -2
CCOC(=O)N1CCN(C(=O)C(CC(C)C)NS(=O)(=O)c2ccc(C)cc2)CC1 (stereo not given) | 1
Cc1ccc(NC(=O)CCN2C(=O)C3CC=CCC3C2=O)cc1Cl (stereo not given) | -4
CC(C)NC(=O)Nc1ccc2c(c1)C(=O)N([C@H](C)CO)C[C@H](C)[C@@H](CN(C)C(=O)Nc1ccc(C(F)(F)F)cc1)O2 | 2
CCCc1cc(=O)[nH]c(SCC(=O)Nc2cc(S(=O)(=O)N(CC)c3ccccc3)ccc2Cl)n1 | -9
Cc1ccc(S(=O)(=O)NCCC(=O)NCC(c2cccs2)N(C)C)cc1 (stereo not given) | -13
CCOC(=O)[C@@H]1[C@H]2COc3ccc(Br)cc3[C@@H]2N2C(=O)N(c3ccc(OC)cc3)C(=O)[C@@]12C | -6
CN1C(=O)N(CC(=O)Nc2sccc2C(N)=O)C(=O)C12CCCCC2 | -4
COc1ccccc1-c1nn(Cc2ccccc2)cc1C(=O)NCC(c1ccco1)N1CCCC1 (stereo not given) | 5
CC(OC(=O)CCc1nc2ccccc2c(=O)[nH]1)C(=O)Nc1cccc(C(F)(F)F)c1 (stereo not given) | -6
COC(=O)c1ccc(COC(=O)CSCC(=O)Nc2ccc(C)cc2C)cc1 | 52
COc1ccc(S(=O)(=O)N2CCCCC2)cc1NC(=O)CCCNC(=O)c1ccc(Cl)cc1 | 4
COc1ccc2nc(C)cc(N/N=C/c3ccccc3)c2c1 | 100
CC(C)(CNS(=O)(=O)c1ccc(Br)s1)N1CCOCC1 | -12

Next structures.
SMILES | Mtb bLac sens
CCOc1cc(N2CCOCC2)c(OCC)cc1NC(=O)c1ccc(OC)c(S(=O)(=O)N2CCOCC2)c1 | -7
CN(CCOc1ccccc1)C(=O)c1ccc(Cl)c(S(=O)(=O)N2CCCCC2)c1 | -2
COc1ccc(S(=O)(=O)Nc2cccc3c2O[C@H](CN(C)C(=O)Nc2ccc(C(F)(F)F)cc2)[C@@H](C)CN([C@H](C)CO)C3=O)cc1 | 7
Cc1ccc(CNC(=O)CN(C)C2=NS(=O)(=O)c3ccccc32)cc1 | 1
O=C(CSc1nnnn1-c1ccc(Cl)cc1)NC1CCS(=O)(=O)C1 (stereo not given) | -6
C[C@@]12CCC3[C@@](CCC4[C@@]3(C)CCC[C@@]4(C)C(=O)NCc3ccccc3)(CC1=O)C2 (stereo not given in full) | 3
NC(=O)c1ccc(NC(=O)COC(=O)c2ccc(Br)o2)cc1 | -2
CC(=O)N1CCN(C(=O)c2cccc(S(=O)(=O)N3CCN(c4ccccc4)CC3)c2)CC1 | -2
CC(C)c1cccc(C(C)C)c1OCCCCCN1CCOCC1 | -3
OC(CCN1CCCCC1)(c1ccccc1)C1C[C@@H]2C=C[C@H]1C2 (stereo not given in full) | 2
Cc1ccc(OCC(=O)N(C)CC(=O)Nc2ccc(Cl)c(C(F)(F)F)c2)c([N+](=O)[O-])n1 | 4
C[C@]12CCC3C(CC[C@H]4C[C@@H](O)CC[C@]34C)C1C[C@@H](Br)[C@@H]2O (stereo not given in full) | 7
COc1ccccc1CNCC(=O)Nc1cc(S(=O)(=O)N2CCCCC2)ccc1C | -6
Cc1cccc(-n2ncc3c(=O)[nH]c(SCC(=O)NCCC4=CCCCC4)nc32)c1 | -1
Cc1ccc(S(=O)(=O)N(C)CC(=O)OCC(=O)NCCN2C(=O)CSC2=O)cc1 | -10
COc1ccc(OCCN(C)C(=O)c2cccc(S(=O)(=O)N(C)c3ccccc3)c2)cc1 | -2
COC(=O)[C@]1(C)N[C@H](CN(C)S(=O)(=O)c2ccc(C(C)(C)C)cc2)[C@@H]2C(=O)N(C)C(=O)[C@@H]21 | 0
CCCCC/C=C\C/C=C\C/C=C\CCCCC(=O)O | -3
O=C(COC(=O)c1ccc(Cl)c(S(=O)(=O)N2CCOCC2)c1)Nc1ccc2[nH]c(=O)[nH]c2c1 | 2
CCCCn1c(N)c(N(C(=O)CSc2nnc(C)n2-c2ccccc2)C2CCCC2)c(=O)[nH]c1=O | -4
CNC(=O)C1CN(C(=O)c2cccc(S(=O)(=O)N3c4ccccc4CC3C)c2)c2ccccc2O1 (stereo not given) | -13
Cc1ccc(NC(=O)c2cccs2)cc1NC(=O)c1ccc(F)cc1 | 0
O=C1CC(N2CCN(S(=O)(=O)c3ccccc3F)CC2)C(=O)N1c1ccc(F)cc1F (stereo not given) | -5
Cc1ccc(S(=O)(=O)NCC(=O)OCCOc2cccc(Cl)c2)cc1 | 10
NC(=O)c1sc2nc(-c3ccccc3)ccc2c1N | 0
CC(NC(=O)c1ccccc1Cl)C(=O)N1CCN(Cc2ccc3c(c2)OCO3)CC1 (stereo not given) | 0
CC1(C)OC(=O)C=C[C@]2(C)[C@H]3CC[C@@]4(C)[C@H](C(=O)O)OC(=O)[C@H]5O[C@]54[C@]3(C)C(=O)C[C@@H]12 | -7
CCn1nc(C)cc1C(=O)N1CCCC(N2CCN(c3cccc(Cl)c3)CC2)C1 (stereo not given) | ?
CCN(C(=O)CSc1nc(C)cc(=O)[nH]1)C1CCCCC1 | -2
COc1ccccc1CNC(=O)CN1c2cccc3cccc(c23)S1(=O)=O | -8
N#CC1(NC(=O)CN2C(=O)c3ccccc3C2=O)CCCCC1 | 6
O=C(NCc1cccc(Cl)c1)C1=CC=CN2CCS(=O)(=O)N=C12 | 1
O=C1C(Cc2ccccc2)Nc2ncnc(N3CCOCC3)c2N1Cc1ccccc1 (stereo not given) | -1
COc1ccc(C2/C(=C(\O)c3ccc4c(c3)CC(C)O4)C(=O)C(=O)N2Cc2cccnc2)c(OC)c1 (stereo not given) | ?
C[C@@H]1CN(C2CCC(C#N)(c3ccc(F)cc3)CC2)CC[C@]1(C(=O)O)c1ccccc1 (stereo not given in full) | -2
C=C1/C=C(\C)C(C)(O)CC(O)CC(=O)C(O)C(O)C(C)CC(C)OC(=O)/C(C)=C/CC/C=C/C(OC)C(O)CC(C)C1 (stereo not given) | 10
COc1cccc(NC(=O)CN(C)CC(=O)NCc2ccco2)c1 | -3
CC1CC(C)CN(C(=O)COC(=O)c2cc3ccccc3oc2=O)C1 (stereo not given) | 5
CCCC1(CCC)NC(=O)N(CC(=O)Nc2ccc3c(c2)OCCO3)C1=O | -3
COc1ccc(NC(=O)COC(=O)CCc2ccc(S(=O)(=O)N3CCOCC3)cc2)cc1Cl | -9
Cc1cc([N+](=O)[O-])nn1CC(=O)NCc1ccc(Cl)cc1 | -4
CC(=O)OC(C)(C)/C=C/C(=O)[C@](C)(O)C1[C@H](O)C[C@@]2(C)C3CC=C4C(C=C(O[C@@H]5O[C@H](CO)[C@@H](O)[C@H](O)[C@H]5O)C(=O)C4(C)C)[C@]3(C)C(=O)C[C@]12C (stereo not given in full) | 1
COc1ccc(OC)c(/C=C/C(=O)OCC(=O)NCc2cccs2)c1 | -1
CCOC(=O)c1oc2ccccc2c1COC(=O)C(C)NC(=O)c1ccco1 (stereo not given) | 6
Cc1cc(C)cc(OCCNC(=O)c2cc(S(=O)(=O)N3CCOCC3)ccc2F)c1 | 3
